High-throughput results deposited in PubChem BioAssay by Johns Hopkins Ion Channel Center.
KCNQ2 pot: enhances the rat KCNQ2 potassium channel. B-score at 10 µM. 310,000 tested, 0.54% active. O88943. AID 2239. CHO-K1 KCNQ2, FluxOR thallium flux fluorescence; active compounds read high;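 active = fluorescence ratio B-score at least 3 SD of library B-scores, with initial fluorescence B-score within 3 SD, cut at about 5.3 in these data; same plate scores as AID 2156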;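 note: B-score of peak minus minimum over baseline fluorescence ratio after K+ and Tl+ stimulus; positive B-score means potentiation of KCNQ2 with more thallium influx and brighter signal; only the inactives scoring about 0 or higher are listed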
Target sequence (O88943 whole entry, looked up): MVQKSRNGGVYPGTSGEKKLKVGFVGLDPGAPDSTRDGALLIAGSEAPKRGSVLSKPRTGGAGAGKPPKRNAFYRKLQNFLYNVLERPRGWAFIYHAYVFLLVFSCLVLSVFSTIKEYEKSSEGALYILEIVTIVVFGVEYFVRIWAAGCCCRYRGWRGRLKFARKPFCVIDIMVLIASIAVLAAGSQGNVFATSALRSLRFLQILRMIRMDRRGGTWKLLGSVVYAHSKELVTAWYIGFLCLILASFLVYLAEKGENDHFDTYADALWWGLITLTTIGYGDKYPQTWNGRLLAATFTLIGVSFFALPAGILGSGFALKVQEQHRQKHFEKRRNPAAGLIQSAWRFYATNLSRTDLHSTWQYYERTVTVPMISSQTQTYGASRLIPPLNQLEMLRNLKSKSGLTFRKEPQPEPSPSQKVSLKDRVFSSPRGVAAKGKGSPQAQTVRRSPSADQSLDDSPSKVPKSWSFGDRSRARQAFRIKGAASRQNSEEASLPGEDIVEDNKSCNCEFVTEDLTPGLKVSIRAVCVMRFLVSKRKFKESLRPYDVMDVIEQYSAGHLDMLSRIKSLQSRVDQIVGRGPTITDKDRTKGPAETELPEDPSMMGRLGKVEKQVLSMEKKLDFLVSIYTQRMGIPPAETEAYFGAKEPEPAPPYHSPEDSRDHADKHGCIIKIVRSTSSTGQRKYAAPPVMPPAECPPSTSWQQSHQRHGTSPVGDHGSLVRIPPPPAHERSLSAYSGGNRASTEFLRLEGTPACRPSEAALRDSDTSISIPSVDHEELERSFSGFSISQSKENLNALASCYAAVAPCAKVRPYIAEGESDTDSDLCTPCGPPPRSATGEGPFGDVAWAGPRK
KCNQ2 pot baseline: recorded beside KCNQ2 pot, whose call it bears; B-score; compound at 10 µM; measured here: initial fluorescence intensity artifact check;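 brightness before thallium and not channel activity; 0 = typical well and far values either way flag optical interference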
* marks the source's active call; other numbers are inactive results.

SMILES	KCNQ2 pot	KCNQ2 pot baseline
COc1ccc(CC2(CO)CCN(CC3=CC[C@H]4C[C@@H]3C4(C)C)CC2)cc1	0.02	0.39
Cc1cc2oc(=O)sc2cc1NS(=O)(=O)c1cccc2cccnc12	0.82	0.44
O=C(N/N=C/C1CCCCC1)c1cc(Cl)ccc1O	0.21	-2.2
COc1ccc(C(=O)Nc2nc(-c3cccs3)cs2)cc1	1.4	-0.36
C/C(CC(=O)Nc1ccc(Cl)cn1)=N\NC(=O)Cc1cccs1	1.1	-1.8
CCSc1nnc(NC(=O)c2csc(C)c2)s1	1.1	0.72
O=S(=O)(Nc1ccc2c(c1)nc1n2CCN(Cc2ccccc2)C1)c1ccc(F)cc1	0.37	0.21
CCC(C(=O)Nc1cccc(C(=O)O)c1)c1ccccc1 (stereo not given)	0.29	0.57
COc1ccc(C(=O)C(CO)Oc2ccccc2OC)cc1OC (stereo not given)	0.1	1.8
O=C(/C=C/Nc1cccc(F)c1)c1ccco1	0.22	-0.92
COc1ccc(-n2cc(CNCCCN3CCCC3=O)c(-c3ccccc3Cl)n2)cc1	0.88	0.94
CCc1ccccc1NC(=O)c1cc(=O)c2ccccc2o1	0.68	0.82
Cc1cccc(NC(=O)c2cnc3n(c2=O)CCS3)c1	0.68	0.47
COc1cc(C2C3C(=O)N(c4ccc(F)cc4)C(=O)C3ON2c2ccccc2)ccc1O (stereo not given)	0.41	1.6
Cc1ccc2c(CN3CCCCC3C)cc(=O)oc2c1 (stereo not given)	0.02	0.06
CCN(CC)C(=O)C(=O)c1cccn1-c1c(Cl)cccc1C#N	0.2	1.2
c1cc2c(cc1NC1CCCCCC1)OCO2	2	-0.97
O=C1NC2(CCCCC2)N(C(=O)c2ccccc2)C2=C1CCCC2	0.89	-0.41
COC(=O)COc1ccc(S(=O)(=O)NCC2CCCO2)cc1Cl (stereo not given)	0.01	0.15
COC(=O)c1cc(C(=O)N2CCN(C(=O)c3ccco3)CC2)cc([N+](=O)[O-])c1	1.8	-2.4
COc1ccc2c(c1OC)C(=O)OC2CC(=O)c1ccc(O)c(O)c1 (stereo not given)	0.8	0.08
Cc1ccc(-c2nc(=S)c3c(n2CC2CCCO2)CC(C)(C)OC3)cc1 (stereo not given)	0.76	0.07
COc1ccc(-c2nc(C#N)c(N3CC(C)OC(C)C3)o2)cc1OC (stereo not given)	0.95	-0.81
O=C(Nc1ccc2oc(-c3ccccc3)nc2c1)c1cccs1	2.2	-0.12
NC(=O)N/N=C/c1cn(-c2ccccc2)nc1-c1cccs1	0.44	1.4
Cc1ccc(NC(=O)CSc2nc(=O)n(CCCN3CCOCC3)c3c2CCCC3)c(C)c1	1.2	-0.72
CCS(=O)(=O)Nc1ccc2[nH]c(=O)[nH]c2c1	3.5	0.15
CC1CCN(S(=O)(=O)c2cccc(C(=O)Nc3nncs3)c2)CC1	0.08	-0.19
C=CCn1c(C)c(C(=O)OCC)c2cc(O)c3ccccc3c21	0.65	-0.13
CCOc1cc(/C=N/NC(=O)CN2CCOCC2)ccc1OCc1ccc(Cl)cc1	0.34	-1.6
COc1ccc(-c2nnc(SCC(=O)Nc3nncs3)o2)cc1	0.03	0.22
COc1ccc(S(=O)(=O)N2CCOC2CNC(=O)C(=O)NCCc2c[nH]c3ccccc23)cc1 (stereo not given)	3.1	-0.24
COC(=O)C(Cc1ccc(OC(=O)c2ccc(Cl)cc2)cc1)N1Cc2ccccc2C1=O (stereo not given)	0.29	-1
CC(=O)c1c(C)nn(CC(=O)NC2CCCN(Cc3ccc(CC(C)C)cc3)C2)c1C (stereo not given)	0.52	0.82
Cc1ccc(OCCn2c(C)nc3ccccc32)cc1	1.4	-0.71
COc1cc(NC(=O)c2ccco2)c(OC)cc1NC(=O)Nc1cccc(Cl)c1	0.29	0

Gathered by group, the compounds so far containing a Cl atom (8)
SMILES	KCNQ2 pot	KCNQ2 pot baseline
O=C(N/N=C/C1CCCCC1)c1cc(Cl)ccc1O	0.21	-2.2
C/C(CC(=O)Nc1ccc(Cl)cn1)=N\NC(=O)Cc1cccs1	1.1	-1.8
COc1ccc(-n2cc(CNCCCN3CCCC3=O)c(-c3ccccc3Cl)n2)cc1	0.88	0.94
CCN(CC)C(=O)C(=O)c1cccn1-c1c(Cl)cccc1C#N	0.2	1.2
COC(=O)COc1ccc(S(=O)(=O)NCC2CCCO2)cc1Cl (stereo not given)	0.01	0.15
CCOc1cc(/C=N/NC(=O)CN2CCOCC2)ccc1OCc1ccc(Cl)cc1	0.34	-1.6
COC(=O)C(Cc1ccc(OC(=O)c2ccc(Cl)cc2)cc1)N1Cc2ccccc2C1=O (stereo not given)	0.29	-1
COc1cc(NC(=O)c2ccco2)c(OC)cc1NC(=O)Nc1cccc(Cl)c1	0.29	0

(further entries)
SMILES	KCNQ2 pot	KCNQ2 pot baseline
Cc1cccc(C)c1OCc1cc(C(=O)N2CCNC(=O)C2)no1	2	0
O=C(C[n+]1cccc(O)c1)Nc1ccc(Br)cc1	1.5	-0.52
O=C(CCCOc1ccc(Cl)cc1Cl)N/N=C/c1ccccc1O	0.49	-0.46
CC1CSc2nnc(CCc3ccccc3)n21 (stereo not given)	0.62	-0.84
COc1ccc(C2(C(=O)NCCCN3CCOCC3)CCOCC2)cc1	0.19	0.1
Cc1ccc(Cl)cc1N1CCN(C(=O)C2CCC(=O)N2C(C)C)CC1 (stereo not given)	0.47	0.35
CS(=O)(=O)N(CC(=O)Nc1ccccc1)c1cccc(Cl)c1Cl	0.3	0.99
Cn1c(COc2ccccc2)nnc1SCc1cc(=O)[nH]c2ccccc12	1.2	-1.1
CC(=O)Nc1ccccc1C(=O)N1CCc2ccccc21	0.35	-2.5
O=C(CS(=O)CC(=O)N(c1ccccc1)C(C(=O)NC1CCCC1)c1cccs1)Nc1ccc(F)cc1 (stereo not given)	0.04	1.4
CS(=O)(=O)n1nc(-c2ccccc2)nc1N	0.22	0
C=C(C)/C=N/NC(=S)Nc1ccc(S(=O)(=O)N2CCOCC2)cc1	1.1	0.88

Entries above with a furan ring, fused or not:
SMILES	KCNQ2 pot	KCNQ2 pot baseline
O=C(/C=C/Nc1cccc(F)c1)c1ccco1	0.22	-0.92
COC(=O)c1cc(C(=O)N2CCN(C(=O)c3ccco3)CC2)cc([N+](=O)[O-])c1	1.8	-2.4
COc1cc(NC(=O)c2ccco2)c(OC)cc1NC(=O)Nc1cccc(Cl)c1	0.29	0

(list continues)
SMILES	KCNQ2 pot	KCNQ2 pot baseline
Cc1ccc2cccc(S(=O)(=O)N3CCCc4ccccc43)c2n1	0.66	-0.48
COc1cc2[nH]c3c(=O)n4c(nc3c2cc1OC)SCCC4	0.97	0.47
Cc1cccn2c(=O)c3cc(C(=O)NCCN4CCOCC4)n(C)c3nc12	1.4	0.87
C=CCN(c1ccccc1)S(=O)(=O)c1cccc2cccnc12	0.14	-1.5
CC(C)c1cc(N2CCC(=O)NC2=O)cc(C(=O)O)c1O	0.49	0.01
O=C(Nc1ccc2c(c1)CCC2)Nc1ccccc1F	2.5	-1.2
CCCCCC(=O)NC(=S)Nc1ccc2oc(=O)ccc2c1	1.3	1.5
CCOC(=O)[C@@H]1[C@H]2COc3ccccc3[C@@H]2N2C(=O)N(c3ccc(C)cc3)C(=O)[C@]12C	1.8	-0.04
O=Nc1c(O)n(Cc2c(Cl)cccc2Cl)c2ccccc12	0.3	-1.1
CN1CCN(CCCNC(=O)c2cc3c(=O)n(C)c4ccccc4c3s2)CC1	0.24	-0.01
COc1ccc(CNc2ncccn2)cc1OC	0.52	-0.17
CC(C)CCNC(=O)CCc1nnc2n(CCCOC(C)C)c(=O)c3ccccc3n12	2.5	-1.6
N#CCCN(C(=O)CSc1ccc2c(c1)OCCO2)c1ccc(F)cc1	0.25	-1.1
Cc1sc2nc(SCC(=O)NCCOCCO)nc(N)c2c1C	0.76	-3.3
Nc1nonc1-n1nnc(C(=O)N/N=C/c2ccc(Br)cc2)c1CN1CCOCC1	1.3	1.7
COc1cc(OC)c(C2N(C)c3ccccc3N2C)cc1OC	0.89	-0.79
C/C(=N\N=C1/SC(CC(=O)O)C(=O)N1c1ccccc1)c1ccc(C)cc1 (stereo not given)	0.76	1.7
CCOC(=O)c1cn(CC)c2cc(Cl)c([N+](=O)[O-])cc2c1=O	0.01	-0.04
O=C(CN1CCCC1)Nc1c2c(cc3c1CCC3)CCC2	0.22	2.4
CC(=O)NCCc1nc2cc(NC(=O)c3ccccc3C)ccc2n1C	0.89	0.34
CCn1c(SCC(=O)Nc2ccc3c(c2)OCCO3)nnc1-c1cccs1	0.49	-2.6
O=C(CN1C(=O)S/C(=C\c2ccc(-c3cc(C(=O)O)ccc3Cl)o2)C1=O)Nc1ccc2c(c1)OCO2	0.9	-0.54
CC(C)C(c1nnnn1CCc1ccccc1)N1CCSCC1 (stereo not given)	0.01	-0.88
COc1cc(C2C(C#N)=C(N)Oc3c2c(-c2ccccc2)nn3-c2ccccc2)cc(OC)c1OC (stereo not given)	0.87	-0.96
Cc1ccc(P(=O)(OCCN2CCOCC2)C(C)(C)C)o1 (stereo not given)	1.2	-0.75
O=C(Nc1ccc(Cl)cc1C(=O)Nc1ccccn1)c1ccco1	0.56	-2.2
O=C(CNC(=O)c1ccc(Br)o1)NC1CCCCCC1	2	-0.15
CC(C)(C)N1CC23CCC(C[C@@H]2C1=O)O3 (stereo not given in full)	0.36	0.17
Nc1cc(-c2ccccc2)nn1S(=O)(=O)c1ccc(F)cc1	1.9	-0.65
COc1ccc(-c2[nH]ncc2-c2nc(C)cs2)c(O)c1	1.7	-1.3
O=C(NCc1ccc2c(c1)OCO2)c1cccc([N+](=O)[O-])c1	3.5	-1.4
Cc1ccccc1/C=N/NC(=O)Cn1nnc(N)n1	2.8	-1.2
Cc1c(-c2cccs2)[n+](=O)c2c(n1[O-])CCC2	1.1	-0.92
Cc1ccc(S(=O)(=O)N2CCN(CC(O)c3ccccc3)CC2)cc1C (stereo not given)	1.9	-0.92
COc1ccc(C(=O)Nc2ccc(/C(C)=N/NC(=O)c3ccccc3O)cc2)cc1OC	0.73	-2.2
O=C(Nc1ccc(F)cc1)c1ccc2ncsc2c1	0.72	-0.81
O=C(NCc1ccccn1)c1cc2cc(Br)ccc2oc1=O	0.53	1.4
CC(C)OC(=O)Cc1nc2sc(-c3ccccc3)cc2c(=O)[nH]1	0.02	0
O=[N+]([O-])c1ccccc1S(=O)(=O)NCCc1ccncc1	0.01	0.95
N#CCC(=O)Nc1ccc(C(=O)OCC(=O)NNC(=O)c2cccs2)cc1	0.28	-0.49
CC1(C)CC(=O)c2cn3c(nc2C1)nc1ccccc13	0.18	1.1
Fc1cc2nccnc2cc1N1CCSCC1	0.74	1.1
CC(=O)N/C(=C\c1ccccc1)C(=O)OCC(=O)NC(=O)c1ccccc1	0.74	0.79
CCC(=O)c1ccc(N2CCN(C(=O)COc3ccc(F)cc3)CC2)c(F)c1	0.26	-0.58
O=C(Cc1ccccn1)c1ccc(F)cc1	0.87	-0.39
Cc1[nH]c(=S)[nH]c(=O)c1CCC1OCCO1	1.8	1.1
O=C(O)C1=C[C@@H](c2coc3ccccc3c2=O)C[C@@H](OCc2ccc(CO)cc2)O1	0.15	-0.03
CC1(c2ccc(Cl)cc2)NC(=O)N(CC(=O)N2CCN(S(=O)(=O)c3ccccc3)CC2)C1=O (stereo not given)	0.36	-0.17
CC(=O)Nc1ccc(C(=O)N2CCc3cc4c(cc3C2C)OCCCO4)cc1 (stereo not given)	2.1	-1.3
COC(=O)c1ccc(-n2nnnc2SCC(=O)Nc2ccccc2C(=O)OC)cc1	0.28	0.02
O=C(CN(c1ccccc1)S(=O)(=O)c1ccccc1)NCCSc1nc2ccccc2s1	0.41	-2.7
COC(=O)C1=C(CSCc2ccccc2)NC(=O)NC1c1cc(C)ccc1C (stereo not given)	1.1	0.05
COC(=O)c1c(NC(=O)CS(=O)(=O)c2ccccc2)sc(C)c1C	0.79	-1.7
O=C(Nc1ccccc1N1CCCC1)C1CCN(S(=O)(=O)c2ccccc2C(F)(F)F)CC1	0.08	1.6
COC(=O)[C@H](Cc1ccccc1)NC(=O)N1CCCCC1	0.98	-0.53
Cc1ccc([N+](=O)[O-])c(OCCN2CCCCCC2)c1	1	0.62
O=C(Nc1ccc(Br)cc1)C(c1ccccc1)c1ccccc1	0.4	0.01
Cc1ccc(CC(=O)NCc2ccc(F)cc2)cc1	0.43	-2.6
COc1ccc(-n2c(SC(C)C(=O)N3CCOCC3)nc3ccccc3c2=O)cc1 (stereo not given)	0.64	1.6
COCCN1CC(C(=O)NCc2ccccc2-n2ccnc2C)CCC1=O (stereo not given)	0.8	-0.01

(next part)
SMILES	KCNQ2 pot	KCNQ2 pot baseline
CC(=O)Nc1c(C(=O)O)oc2ccccc12	0.02	0.07
NC(=O)Nc1ccccc1C(=O)NCCc1ccccc1	0.99	0.07
COc1ccc(N=C2SC(CC(=O)Nc3ccccc3)C(=O)N2CCc2ccccn2)cc1 (stereo not given)	0.41	-2.1
C/C(=N\Nc1nc(N2CCOCC2)nc(N2CCOCC2)n1)c1cccc([N+](=O)[O-])c1	1.1	-1.7
N=c1c(S(=O)(=O)c2ccc(Br)cc2)cc2c(=O)n3ccccc3nc2n1Cc1ccccc1	0.49	-0.53
CCN1C(=O)c2ccccc2S(=O)(=O)c2ccc(C(=O)N3CCOCC3)cc21	0.02	0.82
Cc1ccc(S(=O)(=O)N2CCOCC2)cc1NC(=O)CSc1nnc(N)s1	0.15	1.6
CCn1c(SCC(=O)Nc2nncs2)nnc1-c1ccco1	0.65	-0.24
S=C(Nc1ccc(Cl)cc1)N1CCN(C2CCCCC2)CC1	1.7	-0.31
O=C(CSc1ccccc1)N1CCC(N2CCC(C(=O)N3CCCC3)CC2)CC1	0.84	-1.4
CC(NC(=O)CCCN1C(=O)c2ccccc2C1=O)c1ccc2c(c1)CCCC2 (stereo not given)	0.86	1.5

An excerpt (hit frequency here may not be typical).
